Source: PubChem
PABP polyA inh: PABP poly(A) RNA binding inhibitors, primary screen, biochemical, fluorescence polarization, uHTS. actives 1% (n = 290,000). Polyadenylate-binding protein 1 (Homo sapiens), P11940. inhibition, % at 35 µM;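 active = 50% or more with normal probe brightness, or confirmed in later tests; inconclusive = above 50% with abnormal brightness, or retests that disagree; inactive = below 50% or failed in later tests; about a fifth of its hits are not listed in these tables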;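 also: calls also rest on retests at 20 µM and on dose response follow-up; controls were probe without protein and protein plus probe with vehicle; some compounds called inactive have numbers as strong as hits; many hits fall short of the cut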
Target sequence (P11940 whole entry, looked up): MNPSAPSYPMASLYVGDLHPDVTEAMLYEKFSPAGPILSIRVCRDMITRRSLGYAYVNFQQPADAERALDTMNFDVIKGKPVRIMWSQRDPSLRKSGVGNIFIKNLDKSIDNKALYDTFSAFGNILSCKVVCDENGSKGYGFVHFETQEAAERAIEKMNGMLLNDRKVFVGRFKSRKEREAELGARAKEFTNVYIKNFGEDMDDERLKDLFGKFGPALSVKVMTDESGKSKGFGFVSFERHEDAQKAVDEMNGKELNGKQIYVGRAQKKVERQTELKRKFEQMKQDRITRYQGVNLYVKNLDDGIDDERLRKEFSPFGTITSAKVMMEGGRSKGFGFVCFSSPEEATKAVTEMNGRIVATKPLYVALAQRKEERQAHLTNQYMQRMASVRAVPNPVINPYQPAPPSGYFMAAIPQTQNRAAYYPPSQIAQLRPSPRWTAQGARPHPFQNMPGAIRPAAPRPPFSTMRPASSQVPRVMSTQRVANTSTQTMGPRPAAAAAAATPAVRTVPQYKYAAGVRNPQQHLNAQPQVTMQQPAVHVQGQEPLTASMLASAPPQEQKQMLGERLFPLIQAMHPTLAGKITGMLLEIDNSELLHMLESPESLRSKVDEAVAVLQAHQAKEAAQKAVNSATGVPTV
CSC inhib: cancer stem cell viability inhibitors, primary screen, luminescence | cancer stem cell-like cells viability | inhibition, % at 7.5 µM | actives 1.1% (n = 300,000);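 active = mean at 75% or more and at least half the replicates too; inconclusive = mean and replicates disagree; tested in HMLE shEcad cells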;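 also: 0% = median of negative and 100% = median of positive control wells; the first replicate is given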
eIF4H inh: human eIF4H binding inhibitors, primary screen, translation initiation inhibitor project, biochemical, uHTS, fluorescence polarization; Eukaryotic translation initiation factor 4H (Homo sapiens), Q15056; inhibition, % at 35 µM; actives 0.94% (n = 290,000); AID 2012, 2009; eIF4H fluorescence polarization binding assay;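 active = 50% or more with normal probe brightness, or confirmed in later tests; inconclusive = above 50% with abnormal brightness, or retests that disagree; inactive = below 50% or failed in later tests; about a fifth of its hits are not listed in these tables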;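 also: calls also rest on retests at 20 µM and on dose response follow-up; 0% = protein and probe with vehicle and 100% = probe without protein; strong numbers were not always called active; many hits fall short of the cut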
Rce1 inhib: yeast Rce1p protease inhibitors, primary screen, biochemical, fluorescence, cell-free homogeneous; CAAX prenyl protease 2 (Saccharomyces cerevisiae (strain ATCC 204508 / S288c)), Q03530; yeast membranes, quenched prenylated peptide cleavage fluorescence; calls only; actives 0.27% (n = 290,000); AID 2563, 2010;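 active = fall in fluorescence gain of 50% or more versus controls, with final raw signal at or below 3038400; inconclusive = same 50% fall but final raw signal above 3038400; inactive = fall in fluorescence gain under 50%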;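 also: plate controls were neutral control wells for no effect and wells lacking membranes for full effect; tested at 10 µM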
Target sequence (Q03530 whole entry, looked up): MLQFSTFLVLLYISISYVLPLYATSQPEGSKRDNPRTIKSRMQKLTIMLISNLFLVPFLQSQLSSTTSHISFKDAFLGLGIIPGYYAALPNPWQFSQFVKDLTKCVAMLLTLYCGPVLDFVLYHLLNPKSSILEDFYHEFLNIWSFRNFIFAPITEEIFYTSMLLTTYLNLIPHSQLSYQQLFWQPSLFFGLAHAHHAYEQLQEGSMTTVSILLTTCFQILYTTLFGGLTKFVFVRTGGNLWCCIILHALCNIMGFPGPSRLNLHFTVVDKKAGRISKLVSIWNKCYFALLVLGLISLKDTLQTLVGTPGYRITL
Env fusion inh: inhibitors of HIV-1 Env-driven cell-cell fusion, primary screen, HeLa-JRFL effector, CEM21 target cells, luciferase; actives 1.1% (n = 360,000); inhibition, % at 12.3 µM;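 active = mean replicate inhibition score of at least 50 and every replicate individually at or above 50; inconclusive = only one of the two criteria met; inactive = mean below 50 and not all replicates reaching 50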;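 also: 0% = plate neutral controls and 100% = maraviroc near 300 nM; one replicate is shown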
MT1-MMP act inh: blockers of MT1-MMP proenzyme processing, primary screen, HT1080 RFP-PRO-GFP cells, GFP/RFP fluorescence. GFP/RFP ratio fluorescence, overnight; percent of plate control window, DMSO zero. Matrix metalloproteinase-14 (Homo sapiens), P50281. actives 0.061% (n = 360,000). GFP/RFP ratio change, % at 20 µM;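 active = GFP/RFP ratio change of at least 30% with cell ATP level not reduced by more than half and red fluorescence within 50% of control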; also: strong numbers were not always called active
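Assay system: RFP-PRO-GFP reporter HT1080 cells; read-out basis: GFP/RFP fluorescence ratio; benchmarks: DMSO wells and RFP-L50D-GFP cells; doses: 20 µM single dose, 1% DMSO; schedule: overnight cell settling, then overnight compound exposure, 37 °C, 5% CO2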
UUG fidelity: modulators of yeast start codon fidelity, primary screen, whole organism, S. cerevisiae, single point, plate reader; activity score, % at 18.7 µM; S. cerevisiae UUG-firefly luciferase reporter, luminescence/redox ratio; actives 0.13% (n = 350,000); AID 602363, 2012;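 active = replicate mean at a twofold rise or more, about +100% in these data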;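 also: firefly luciferase made from a UUG start codon reports start codon fidelity; reporter light over untreated wells divided by growth signal over untreated wells; some hits fall short of that in this replicate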
MT1-MMP act inh RFP: further read-out of MT1-MMP act inh, marked with its call; RFP signal change, %; measured here: RFP expression control read;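 0 = vehicle wells; hits needed this value within 50% of zero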
* marks the source's active call; other numbers are inactive results; i = inactive; ? = inconclusive; . = not tested or not shown; + = active, no number. Random draw from the library; about 2.9% have a hit in one of these screens.

compound,PABP polyA inh,CSC inhib,eIF4H inh,Rce1 inhib,Env fusion inh,MT1-MMP act inh,MT1-MMP act inh RFP,UUG fidelity
N#CCCN(Cc1cccnc1)C(=O)c1sc2cc(F)ccc2c1Cl,-3,23,-4,i,17,-2,-3,-16
COc1ccc(NC(=O)CN2CCN(S(=O)(=O)c3ccc(Cl)cc3)CC2)cc1,-2,-3,-4,i,.,6,-1,-6
CCN(c1cccc(C)c1)S(=O)(=O)c1cc2c3c(c1)CCN3C(=O)CC2,.,-4,.,i,-4,0,0,.
CCOc1cc(/C=C2\C(=N)N3N=C(S(C)(=O)=O)SC3=NC2=O)ccc1OCCOc1cccc(OC)c1,-1,12,3,i,-4,1,-2,.
Cn1cccc1-c1nc2ccc(NC(=O)c3ccccc3)cc2[nH]1,13,-13,2,i,.,5,7,-1
CCc1ccc(-c2cc(C)no2)cc1S(=O)(=O)N1CCN(c2ccccc2OC)CC1,11,-12,-14,i,5,-3,-8,-10
CC(=O)Nc1ccc(S(=O)(=O)NCc2nnnn2-c2ccc(F)cc2)cc1,.,-16,.,i,9,3,2,.
C=C(C)CNC(=S)N/N=C/C1=CCC2CC1C2(C)C (configuration not stated),1,-2,2,i,29,-1,-5,.
Cc1cccc(OCC(=O)NCc2ccc(F)cc2)c1,8,-18,-3,i,-9,1,-4,6
CC1CCCN(C(=O)c2ccccc2OC2CCN(S(C)(=O)=O)CC2)C1 (configuration not stated),7,-2,2,i,12,4,6,.

Compound profiles (already shown).
`CCOc1cc(/C=C2\C(=N)N3N=C(S(C)(=O)=O)SC3=NC2=O)ccc1OCCOc1cccc(OC)c1` in the list: PABP polyA inh = -1; CSC inhib = 12; eIF4H inh = 3; Rce1 inhib = i; Env fusion inh = -4; MT1-MMP act inh = 1; MT1-MMP act inh RFP = -2; UUG fidelity = .
`CCN(c1cccc(C)c1)S(=O)(=O)c1cc2c3c(c1)CCN3C(=O)CC2` in the list: PABP polyA inh = .; CSC inhib = -4; eIF4H inh = .; Rce1 inhib = i; Env fusion inh = -4; MT1-MMP act inh = 0; MT1-MMP act inh RFP = 0; UUG fidelity = .

Additional structures
compound,PABP polyA inh,CSC inhib,eIF4H inh,Rce1 inhib,Env fusion inh,MT1-MMP act inh,MT1-MMP act inh RFP,UUG fidelity
Cc1sc2c(c1C)C(=O)NC(c1cccc(O)c1)N2 (configuration not stated),6,2,3,i,.,.,.,.
Cc1ccc(N=Cc2c(O)n(C)c(=O)n(C)c2=O)nc1,5,.,-6,+,-14,1,0,-10
Cc1ccc(Cl)cc1NC(=O)Cn1cc2c(n1)CCCC2,3,-11,-2,i,4,2,1,-1
CCOC(=O)c1ccc(N2CCCCC2)c(NS(=O)(=O)c2ccc(C)cc2)c1,-1,54,10,i,3,-4,-20,-17
CC(C)Cn1c(N)c(C(=O)COC(=O)Cc2cccc(C(F)(F)F)c2)c(=O)n(C)c1=O,.,6,.,i,-21,2,-4,-11
COc1ccc(-c2csc(C(NC(C)=O)c3ccc(F)c(F)c3)n2)cn1 (configuration not stated),.,.,.,.,-7,2,1,4
CNC(=O)C1CC(=O)N(CCCc2ccccc2)C(=Nc2ccccc2)S1 (configuration not stated),1,-11,2,i,-104,1,-1,.
C=CCN(c1ccccc1)S(=O)(=O)c1cccc(C(=O)N2CCCC2)c1,.,-6,.,i,4,0,2,-12
Cc1ccc(Cl)cc1-n1c(=O)cc(N2CCN(C(=O)c3ccco3)CC2)[nH]c1=O,-8,-10,16,i,.,-8,1,-14
CSCCC(NC(=O)C1CCC(C)CC1)C(=O)O (configuration not stated),-7,-6,8,i,-24,-4,5,-9
CC(C)(C)C(=O)N1CCC(O)(CS(=O)(=O)Cc2ccc(Cl)cc2)CC1,-2,-11,2,i,-27,2,3,-4
CCOC(=O)c1c(N)c2cc([N+](=O)[O-])ccc2n1C,5,10,-1,i,17,9,-1,-6
Cc1c(C(=O)Nc2ccc(C(F)(F)F)cc2)sc2ncn(CC(=O)N3CCN(c4ccccn4)CC3)c(=O)c12,-16,4,-13,i,9,7,-9,-18
CCOC(=O)CSc1ncnc2c1c(-c1ccccc1)cn2-c1ccc(OC)cc1,0,-6,-6,i,-10,-6,-12,-10
CCCNC(=O)c1ccc(N2CCC3(CC2)CC(c2cccc(Br)c2)=NO3)c(NC(=O)c2ccc(Br)cc2)c1,.,10,.,i,-8,1,1,-11
O=C(O)CCCN1C(=O)/C(=C/c2ccncc2)SC1=S,-12,10,-9,i,-8,0,0,-23
Cc1cc(=O)n2nc(N3CCC(C(=O)NCc4ccccc4)CC3)sc2n1,-3,9,-6,i,-12,4,6,-12
CCCCOC1NC(=O)NC(=O)C1(F)C(=O)OCC (configuration not stated),.,.,.,.,11,4,8,-7
CCOc1ccc(-c2c(C(=O)N/N=C(\C)c3ccccc3OC)nnn2-c2nonc2N)cc1,7,8,-2,i,-6,2,-3,-12
CC(C)(C)N(C=C(Cl)Cl)C(=O)NC1CCCCC1,1,14,-4,i,.,3,4,-13

Carrying on:
| smiles | PABP polyA inh | CSC inhib | eIF4H inh | Rce1 inhib | Env fusion inh | MT1-MMP act inh | MT1-MMP act inh RFP | UUG fidelity |
| --- | --- | --- | --- | --- | --- | --- | --- | --- |
| c1ccc2c(c1)NC1(CCCCCC1)n1c-2nc2ccccc21 | -8 | -11 | -2 | ? | -110 | 5 | 1 | -17 |
| Clc1nc2ccccc2cc1-c1nnn(-c2ccccc2)n1 | -7 | 1 | -5 | i | -192 | -4 | 1 | -17 |
| COc1ccc(C(=O)NCCCn2cccn2)cc1OC1CCN(C(C)=O)CC1 | -4 | . | 0 | i | . | -2 | 4 | 7 |
| C=CCn1c(C)cc(C(=O)COC(=O)c2ccc(N)c([N+](=O)[O-])c2)c1C | 0 | 1 | -4 | i | -20 | 3 | -5 | . |
| CCOc1cc(/C=N/NC(=O)c2ccc(CSc3nncn3C)cc2)ccc1OCC(=O)N1CCOCC1 | 5 | . | 4 | i | 9 | -1 | 5 | . |
| OC1CCC(Nc2ccn3nc(-c4cccc(Cl)c4)cc3n2)CC1 (configuration not stated) | . | . | . | . | -151 | 0 | -1 | -14 |
| COc1ccc(C[C@H]2CN3C(=NC[C@@H]3Cc3ccc(O)cc3)N2C[C@H](C)NC(=O)c2ccc(C)c(Br)c2)cc1 | -14 | 21 | -4 | i | . | . | . | 5 |
| CC1CCN(C(C(=O)Nc2ccc(C(C)C)cc2)c2ccc3c(c2)OCO3)CC1 (configuration not stated) | -3 | 32 | -5 | i | 3 | -2 | -5 | -1 |
| Cc1ccc(C(=O)Nc2nccc(-c3cccs3)n2)cc1 | 6 | -4 | 0 | i | -98 | -2 | -1 | -8 |
| COc1ccc(C(CNC(=O)c2[nH]c(C)c(C(C)=O)c2C)N2CCOCC2)cc1 (configuration not stated) | . | -6 | . | . | . | -5 | -1 | -11 |
| CC(=O)C1=C(O)C(=O)N(c2ccc(O)cc2)C1c1cccc(F)c1 (configuration not stated) | 7 | -11 | -1 | i | 5 | 0 | 2 | -7 |
| Cc1ccc(-n2c(C)cc(/C=N/Nc3ccc([N+](=O)[O-])cn3)c2C)cc1 | 1 | -5 | -8 | i | . | -4 | -2 | -1 |
| CCCCn1c(N)c(N(CCC(C)C)C(=O)CN2C(=O)C3CCCCC3C2=O)c(=O)[nH]c1=O (configuration not stated) | 5 | 3 | -3 | i | . | -3 | -3 | 1 |
| NC(=O)c1nc(-c2ccccc2)c(-c2ccccc2)[nH]c1=O | . | 1 | . | i | 3 | 3 | 0 | . |
| COc1ccc2[nH]c3c(c2c1)CCNC3C1CC=C(C)CC1 (configuration not stated) | 10 | -4 | 3 | i | -16 | -6 | -11 | 1 |
| O=C(c1ccccc1-c1nc2ccccc2[nH]1)N1CCCCC1 | -4 | 1 | -4 | . | . | 0 | 0 | -14 |
| C=CCC(NCc1ccco1)c1ccc(OC)c(OC)c1 (configuration not stated) | -3 | -2 | -12 | i | -39 | 1 | 1 | -17 |
| CC(=O)Cc1nsc(NC(=O)c2ccc(-c3cccc(Cl)c3)o2)n1 | 4 | 66 | -2 | i | -1 | -7 | -14 | -22 |
| Cc1cccc(OCc2nc(C)cc(=O)[nH]2)c1 | -8 | . | 2 | i | . | -3 | -1 | . |
| CC(=O)c1ccc(Oc2nc(-c3cccnc3)nc3ccccc23)cc1 | 4 | 5 | -4 | . | -5 | -1 | 5 | -9 |
| CCN(C(=O)COC(=O)c1cc(C)oc1C)c1c(N)n(Cc2ccccc2)c(=O)[nH]c1=O | . | -12 | . | . | . | 4 | 3 | 5 |
| COc1ccccc1N1CCN(C(=O)CCCn2nc(C)c([N+](=O)[O-])c2C)CC1 | -4 | 4 | -8 | i | -1 | 0 | -2 | -1 |
| COc1ccccc1NC(=O)CSc1nc2nccnc2c(=O)n1Cc1cccs1 | -2 | 13 | 0 | i | -7 | -3 | -2 | 0 |
| Cc1cc(C)nc(SCc2nnc(SCC(=O)Nc3nccs3)n2Cc2ccco2)n1 | -2 | -13 | -2 | i | 3 | 6 | 4 | -2 |
| O=C(NCCOC(=O)c1ccccc1)c1ccccc1 | . | . | . | . | 0 | 1 | 6 | -11 |
| COc1ccc(-c2c(C#Cc3ccsc3)c3cc(-c4ccc(OC)c(F)c4)ccc3n2C)cc1 | . | -9 | . | . | -14 | 0 | -3 | -20 |
| CC(=O)c1cccc(-n2c(CCC(=O)O)ccc2-c2ccc(C)cc2)c1 | 0 | -2 | -7 | i | . | -2 | -4 | 5 |
| Cc1ccc(S(=O)(=O)NC(=O)Nc2nc(-c3ccc(F)c(F)c3)cs2)cc1 | -3 | -15 | 0 | i | -11 | 4 | 5 | -8 |
| COCC(=O)Nc1ccc(Br)c(C)c1 | 3 | -13 | 7 | i | -8 | 2 | -2 | -2 |
| CN(C)c1cccc(NC(=O)CCc2ccccc2)c1 | 26 | -9 | 10 | i | . | -8 | 2 | -7 |
| CC(C(N)=O)N1C(=O)c2cccc3cccc1c23 (configuration not stated) | 19 | 7 | -7 | i | . | 1 | 1 | -4 |
| CN(CC(=O)Nc1ccc(Cl)cc1)CC(=O)Nc1ccc(C(N)=O)cc1 | 1 | 5 | -1 | i | -4 | 0 | 5 | . |
| O=C(NCCN1CCOCC1)c1ccc(Cl)c(Cl)c1 | -6 | 0 | 6 | i | 3 | 0 | 3 | -9 |

4 entries from above, with two lines to a compound.
Results follow in this order: PABP polyA inh, CSC inhib, eIF4H inh, Rce1 inhib, Env fusion inh, MT1-MMP act inh, MT1-MMP act inh RFP, UUG fidelity
CC(C(N)=O)N1C(=O)c2cccc3cccc1c23 (configuration not stated)
  19, 7, -7, i, ., 1, 1, -4
Cc1cc(C)nc(SCc2nnc(SCC(=O)Nc3nccs3)n2Cc2ccco2)n1
  -2, -13, -2, i, 3, 6, 4, -2
COc1ccccc1N1CCN(C(=O)CCCn2nc(C)c([N+](=O)[O-])c2C)CC1
  -4, 4, -8, i, -1, 0, -2, -1
COc1ccc(-c2c(C#Cc3ccsc3)c3cc(-c4ccc(OC)c(F)c4)ccc3n2C)cc1
  ., -9, ., ., -14, 0, -3, -20
